Assay outcomes deposited in PubChem by National Center for Advancing Translational Sciences (NCATS).
ClpP mod = qHTS Assay for Activators of ClpP; ATP-dependent Clp protease proteolytic subunit (Bacillus subtilis (strain 168)), P80244; Potency, µM (top dose mostly 57.5 µM), without a hit: at the highest dose activity change, negative = active; 340,000 compounds, 1.9% hits; purified B. subtilis ClpP, FRET peptide cleavage, 20 min; active = well fitted falling curve with a large enough effect; inconclusive = small, poorly fitted or top-dose-only effect; inactive = no such curve, though single readings can be large or run the other way; note: potency is the fitted concentration of half-maximal effect; the source files actives as falling curves though it sought activators and does not explain the sign; nearly all actives have a fitted effect of over 65% in size; many hits overshoot -100%
Target sequence (P80244 whole entry, looked up): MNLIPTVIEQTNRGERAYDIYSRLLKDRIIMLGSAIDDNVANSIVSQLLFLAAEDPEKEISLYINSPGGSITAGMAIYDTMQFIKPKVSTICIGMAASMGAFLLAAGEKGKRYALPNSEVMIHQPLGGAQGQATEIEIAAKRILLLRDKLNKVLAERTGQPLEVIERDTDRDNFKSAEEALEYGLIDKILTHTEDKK
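FRET quenching reversal measured ClpP activation: 10 microg/mL B. subtilis ClpP at pH 8 with the FRET-FV decapeptide, read at 430 nm after 320 nm excitation. The 20-min minus 0-min signal was scaled between DMSO/no-enzyme wells and ADEP (5.8 microM final).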
TRPML1 blocker = qHTS for Inhibitors of the Human Mucolipin Transient Receptor Potential 1 (TRPML1). 390,000 compounds, 0.02% hits. activity change, negative = inhibition, % (test concentration not listed). TRPML1-inducible cells, Ca2+ dye fluorescence, FDSS; active compounds read low; inhibition of EC80 agonist-evoked calcium signal; in the data active means activity change below about -50%; inconclusive means about -30% to -50%; inactive means above about -30%;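 note: stimulus is agonist 54-4 at its EC80 concentration; % is set by controls: 0 for no effect and ±100 for the full control effect; compound concentration not given in the record; the text of the record puts the active cut at -80%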
Target sequence (Q9GZU1 whole entry, looked up): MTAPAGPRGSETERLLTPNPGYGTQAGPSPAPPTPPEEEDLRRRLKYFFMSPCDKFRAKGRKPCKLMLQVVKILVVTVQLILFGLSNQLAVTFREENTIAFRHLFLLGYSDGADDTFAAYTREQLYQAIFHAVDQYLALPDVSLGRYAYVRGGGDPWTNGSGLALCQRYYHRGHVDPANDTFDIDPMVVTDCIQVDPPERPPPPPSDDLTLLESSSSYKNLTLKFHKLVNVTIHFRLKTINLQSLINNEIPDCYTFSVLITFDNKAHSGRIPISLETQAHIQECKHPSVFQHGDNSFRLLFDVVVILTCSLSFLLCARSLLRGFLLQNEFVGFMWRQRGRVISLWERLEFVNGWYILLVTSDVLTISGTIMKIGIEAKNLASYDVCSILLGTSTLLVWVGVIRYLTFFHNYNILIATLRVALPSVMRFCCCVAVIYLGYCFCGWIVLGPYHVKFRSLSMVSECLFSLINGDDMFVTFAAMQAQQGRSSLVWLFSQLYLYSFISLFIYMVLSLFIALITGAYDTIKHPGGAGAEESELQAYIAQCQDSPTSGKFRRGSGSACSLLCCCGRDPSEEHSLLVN
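Tet-induced TRPML1-DL cells loaded with Ca8 no-wash calcium dye were read kinetically on FDSS. Compound addition was followed by EC80 agonist 54-4 (4 uM final); inhibition was read over 110 s.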
The depositor's hits bear a star; ? = inconclusive. Only part of the results is shown; count on the stated rates, not on these rows.

No.	canonical_smiles	ClpP mod	TRPML1 blocker
1	Cc1ccc([C@@H]2C[C@H]3[C@@H](CN2S(=O)(=O)c2ccc(C)cc2)C(=O)C[C@@H](c2ccccc2F)N3S(=O)(=O)c2ccc(C)cc2)cc1	-2.1%	-18.5
2	O=C(Cc1ccc(Cl)cc1)NCC(c1cccs1)S(=O)(=O)c1ccccc1 (stereo not drawn)	-0.5%	2.0
3	COc1ccc(Cn2c(C(=O)O)c(CNC3CCCC3)c3ccc(C)cc32)cc1	-6.1%	-22.7
4	Cc1ccccc1C(=O)Nc1cccc(C(=O)OCc2cc(=O)n3nc(C4CC4)sc3n2)c1	-0.3%	1.8
5	COc1ccc(C(=O)NCC(c2cccnc2)N2CCN(c3ccccc3F)CC2)cc1OC (stereo not drawn)	-2.1%	39.9
6	COc1ccc(NC(=O)CSC2=Nc3ccccc3C3=NC(Cc4ccccc4)C(=O)N23)cc1 (stereo not drawn)	-7.7%	-13.9
7	COc1cc(NS(=O)(=O)c2cnc(N)nc2)cc(OC)c1	-1.2%	1.0
8	Cc1ccc(C(=O)Nc2cc3c(cc2N2CCCC2)n(C)c(=O)c(=O)n3C)cc1	?	2.1
9	CCn1ccc2cc(S(=O)(=O)N3CCCN(C(=O)Nc4cccc(SC)c4)CC3)ccc21	-5.7%	-29.5
10	Cc1ccc(C)c(Nc2cc(C(=O)NC3CCCCC3)c3ccccc3n2)c1	-4.7%	-5.6
11	Cc1ccc(NC(=O)Nc2cn(C)c(=O)c3ccccc23)c(Cl)c1	3.8%	19.0
12	COc1ccc(CN2C[C@@H](CO)O[C@@H](n3cnc4c(NC5CC5)ncnc43)C2)cc1	0.2%	24.4
13	Cc1ccc(NC(=O)CSc2nc3ccccc3nc2Cc2ccccc2)c(C)c1	-2.2%	0.8
14	CCN1C(=O)c2ccccc2Sc2ccc(NC(=O)Cc3ccc(OC)cc3)cc21	-6.9%	8.1
15	CC(NCc1ccc2c(c1)n(C)c(=O)n2C)c1ccccc1 (stereo not drawn)	-2.6%	-6.6
16	CC(=O)c1cccc(NS(=O)(=O)c2ccc3[nH]c4c(c3c2)CCCCCC4)c1	-3.5%	-9.1
17	CC(C)CC(N)c1csc(NC(=O)Nc2ccccc2C(C)C)n1 (stereo not drawn)	-1.6%	-10.1
18	Cc1ccc(CNC(=O)c2ccc3c(c2)c(C)c(C)n3Cc2ccccc2)o1	-29.2%	25.9
19	N#Cc1ccc(-c2nc3ccc(Cl)cn3c2Cc2ccsc2)cc1	?	47.7
20	CCOc1ccc(C2C(=O)N(C3CCCCC3)CC(=O)N2Cc2ccc(F)cc2)cc1OC (stereo not drawn)	-1.8%	7.4
21	CCc1ccc(Sc2cc(C(=O)NCCCN3CCC(C)CC3)c3ccccc3n2)cc1	-14.3%	14.2
22	COc1ccc(S(=O)(=O)NCC(c2ccco2)S(=O)(=O)c2ccc(C)cc2)cc1F (stereo not drawn)	2.3%	-19.8
23	Cc1ccc(N(CC(=O)Nc2ccc(Br)c(C)c2)S(=O)(=O)c2cccs2)cc1	1.1%	14.6
24	COc1ccc(N(C(=O)c2ccc(C)cc2)S(=O)(=O)c2ccc(Cl)cc2)cc1	-1.8%	27.7
25	Cc1ccccc1CSc1nc2cc(C(=O)NC3CCCC3)ccc2c(=O)n1Cc1ccccc1	-5.8%	25.2
26	Cc1ccc(-c2cnc(C3CC3)o2)cc1S(=O)(=O)Nc1cccc(C)c1C	-29.9%	5.8
27	CCCc1cnc2c(c1SCC(=O)Nc1ccc([N+](=O)[O-])cc1)c(=O)n(C)c(=O)n2C	-8.0%	13.9
28	CCc1nnc(NC(=O)c2nc(SCc3ccc(F)cc3)ncc2Cl)s1	0.0%	-20.0
29	Cc1cccc(Cn2c(=O)n(CCc3ccccc3)c(=O)c3c(C)c(C)sc32)c1	3.2%	30.9
30	COc1ccc(NC(=O)CN(C)S(=O)(=O)c2ccc3c(c2)CCCN3C(C)=O)cc1Cl	-1.9%	-9.6
31	O=c1cc(CN(Cc2ccccc2)Cc2ccccc2)c2ccccc2o1	-6.8%	59.8
32	Cc1sc2c(c1C)c(=O)n(Cc1ccccc1)c(=O)n2Cc1ccc(F)cc1	1.3%	-12.5
33	Cc1ccc(NC(=O)Cn2nnc(-c3nc(-c4ccncc4)no3)c2N)c(C)c1	-0.1%	-18.0
34	COC(=O)c1cc2sccc2n1Cc1nc(-c2cccc(Br)c2)oc1C	0.0%	-13.5
35	CCOC(=O)c1cc(C)n(CC2CCC(C(=O)Nc3ccc(C(C)=O)cc3)CC2)c1C (stereo not drawn)	-8.6%	3.3
36	O=C(CCS(=O)(=O)c1cc2c(cc1Cl)NC(=O)CO2)NCCc1ccc(Cl)cc1	-0.5%	-9.0
37	COc1ccc(-n2ccn3c(CC(C)(C)CC(=O)O)nnc3c2=O)cc1	-2.3%	-25.0
38	Cc1ccc(C(=O)NCC(c2cccs2)S(=O)(=O)c2cccs2)cc1C (stereo not drawn)	0.4%	-1.0
39	O=C(Nc1ccccc1C(F)(F)F)c1cc(-c2ccc3c(c2)OCCO3)on1	-20.6%	-14.1
40	Cc1ccc(Cc2c(-c3ccc(Cl)cc3)nc3cc(C)c(Br)c(C)n23)cc1	-2.1%	9.9
41	COc1ccc(NC(=O)CC(C)S(=O)(=O)c2cc3c(cc2C)NC(=O)CO3)cc1OC (stereo not drawn)	-1.0%	-1.6
42	COc1cc2c(C(=O)N(C)c3cc(Cl)ccc3OC)cn(CC(C)C)c(=O)c2cc1OC	-0.4%	5.4
43	CC(C)(C)c1ccc(OCC(=O)N2CCC(c3nc4ccccc4s3)CC2)cc1	0.1%	10.6
44	COCc1cc(C)nc2sc3c(c12)NC(c1ccc(O)cc1)N(c1ccc(C)cc1)C3=O (stereo not drawn)	-15.2%	12.1
45	Cc1cc(C)c(NC(=O)Cn2c(=O)n(Cc3ccc(C(=O)NCc4ccco4)cc3)c(=O)c3sccc32)c(C)c1	1.7%	-1.1
46	O=C(NCc1ccco1)c1ccc(Cn2c(SCc3ccccc3F)nc3cccnc32)cc1	4.4%	26.2
47	O=C(CCCn1c(=O)c2ccccc2n(Cc2cccc(F)c2)c1=O)NCc1ccccc1Cl	0.4%	-6.4
48	O=C(Nc1cccc(C(=O)OCc2cc(=O)n3nc(C4CC4)sc3n2)c1)c1cccc(Cl)c1	-22.2%	16.3
49	COc1ccc(-c2nc(-c3cc4cc(Br)ccc4oc3=O)cs2)cc1	-5.8%	-14.0
50	Cc1ccc(-n2cnc3cc(C(=O)NC4CCCCCC4)ccc32)c(C)c1	-0.2%	-0.5
51	Cc1cccc(CNC(=O)c2cnc3sc(N4CCOCC4)nn3c2=O)c1	?	-8.5
52	Cc1c(C(=O)Nc2ccc(F)c(C(F)(F)F)c2)sc2nc(-c3ccccc3)cn12	?	64.4
53	CCOC(=O)C1=C(CN2CCN(CC)CC2)NC(=O)NC1c1ccc(Cl)cc1 (stereo not drawn)	-1.2%	10.4
54	Cc1ccc(Cn2c(CNC(=O)c3ccc(Cl)c([N+](=O)[O-])c3)nc3cccnc32)cc1	-16.1%	10.6
55	Nc1nonc1-c1nc2ccccc2n1CC(=O)Nc1ccccc1C(=O)O	-9.6%	-7.0
56	Nc1c(C(=O)Nc2ccc(OC(F)(F)F)cc2)nnn1Cc1ccccc1	-3.3%	-2.9
57	COc1cc2c(=O)n(Cc3ccccc3)c(=O)n(CC(=O)Nc3cc(C(F)(F)F)ccc3Cl)c2cc1OC	-1.5%	-13.2
58	Cc1ccc(C(=O)Nc2ccc(-n3c(C)nc4ccccc4c3=O)cc2)cc1[N+](=O)[O-]	1.7%	4.4
59	CCOc1ccccc1NC(=O)CSc1nccn1-c1cccc(C)c1	1.2%	34.1
60	COC(=O)c1cc2oc3ccccc3c2n1Cc1ccc(C)cc1	4.7%	-14.2

Fetched by compound from the list above (two):
No.	canonical_smiles	ClpP mod	TRPML1 blocker
46	O=C(NCc1ccco1)c1ccc(Cn2c(SCc3ccccc3F)nc3cccnc32)cc1	4.4%	26.2
51	Cc1cccc(CNC(=O)c2cnc3sc(N4CCOCC4)nn3c2=O)c1	?	-8.5

(listing goes on)
No.	canonical_smiles	ClpP mod	TRPML1 blocker
61	CCCN(Cc1cc2cc(C)ccc2[nH]c1=O)C(=O)c1cccc(Cl)c1	-1.9%	-10.8
62	Cc1ccc(-n2ncc3c(N4CCC(Cc5ccccc5)CC4)ncnc32)cc1C	?	3.6
63	Cc1ccc2c(CC(=O)Nc3ccc(S(=O)(=O)N4CCCCC4)cc3)coc2c1	-4.9%	7.1
64	CC(C)(C)OC(=O)N1CCC(c2c(C(=O)NCCc3ccsc3)cnn2-c2ccc(F)cc2F)CC1	-0.7%	-1.7
65	COc1ccc2cc(CNc3ccc(C)cc3)c(=O)n(CC(=O)Nc3cccc(C(F)(F)F)c3)c2c1	0.8%	-1.9
66	COCCc1nn2c(=O)cc(COC(=O)c3ccc4c(c3)OCO4)nc2s1	-15.4%	0.7
67	Cc1ccc(CNc2ccc(-c3nc(-c4ccco4)no3)cc2[N+](=O)[O-])cc1	-0.8%	-21.1
68	Cn1c(=O)c2c(-c3ccccc3Cl)n(Cc3ccc(Cl)cc3)cc2n(C)c1=O	25.1µM*	-6.7
69	COc1cccc(-c2nc3c(c(SCC(=O)Nc4cccc(C)c4C)n2)Cc2c(CO)cnc(C)c2O3)c1	62.5%	-3.5
70	COCCNC(=O)C1(C)CCCN(C(=O)c2cc(C)oc2C)C1 (stereo not drawn)	-0.2%	9.8
71	Cn1c(=O)n(C)c2cc(N3CCCC3)c(NC(=O)Nc3ccccc3)cc21	-10.2%	20.1
72	CC(NC(=O)CN(c1ccc(Cl)cc1Cl)S(=O)(=O)c1ccccc1)c1ccccc1 (stereo not drawn)	-1.3%	64.8
73	Cn1c(Oc2ccc(Cl)cc2)nc2c1c(=O)n(Cc1ccc(F)cc1)c(=O)n2C	0.9%	0.1
74	CC(C)c1ccc(NC(=O)CN2C(=O)c3cccc4cccc2c34)cc1	-19.6%	10.3
75	CCN1CCN(C(=O)Cn2ncc3c4ccccc4n(Cc4ccccc4F)c3c2=O)CC1	4.6%	-8.0
76	Cc1nc(-n2nc(C)c(Cc3ccc4c(c3)OCO4)c2C)sc1C(=O)Nc1ccc(Cl)cc1	-19.9%	-3.5
77	Cc1ccc(-n2ncc(C(=O)NCCCN3CCN(C)CC3)c2C2CCN(C(=O)OC(C)(C)C)CC2)c(C)c1	0.9%	0.8
78	COc1cc(NC(=O)N(Cc2ccco2)C2CCN(C(C)=O)CC2)cc(OC)c1OC	-15.1%	4.9
79	CCOc1cc(C2C(C(=O)Nc3ccc(OC)cc3)=C(C)Nc3nc(SC)nn32)ccc1O (stereo not drawn)	2.5%	-8.5
80	COc1cc(OC)c(NC(=O)CC(C)S(=O)(=O)c2ccc3c(c2)NC(=O)CO3)cc1Cl (stereo not drawn)	-1.7%	-11.1
81	COc1cc(NC(=O)c2noc3c2CSc2ccccc2-3)cc(OC)c1OC	-11.7%	8.2
82	CC1Cc2cc(S(=O)(=O)CCC(=O)Nc3cccc(F)c3)ccc2N1C(=O)C1CC1 (stereo not drawn)	-3.5%	35.9
83	CC(CCc1ccccc1)NC(=O)CSc1n[nH]c(-c2ccccc2Cl)n1 (stereo not drawn)	1.8%	34.6
84	CC1=C(C(=O)Nc2cccc(Cl)c2C)C2(CCCCCC2)OC1=O	1.2%	9.7
85	O=c1oc2cc(O)ccc2cc1-c1nc(-c2ccc(Cl)c(Cl)c2)cs1	-13.2%	-15.8
86	CCOC(=O)c1c(C)oc2nc(C)nc(NCCc3ccc(S(N)(=O)=O)cc3)c12	0.1%	-7.5
87	O=C(c1ccc(F)cc1)N1CCN(CCc2ccncc2)CC1	-0.3%	-12.9
88	COc1ccc(S(=O)(=O)N(CC(=O)Nc2cccc(C(F)(F)F)c2)c2ccc(C)cc2)cc1	-0.8%	12.5
89	COc1ccc(-c2noc(CN3CCN(c4ccccc4OC)CC3)n2)cc1OC	-0.9%	-16.0
90	CC1CCN(C(=O)c2ccccc2NC(=O)c2nsc3ccccc23)CC1	0.3%	17.3
91	CCCS(=O)(=O)NC(=O)C1(C)CCCN(C(=O)c2cc(-c3cccs3)oc2C)C1 (stereo not drawn)	?	-8.0
92	O=C(CSc1nc2c(c(=O)[nH]1)CN(Cc1ccc3c(c1)OCO3)CC2)Nc1cccc(Cl)c1	0.5%	-0.7
93	Cc1ccc(NC(=O)C2CCCN(S(=O)(=O)c3cccs3)C2)c(C)c1 (stereo not drawn)	0.7%	-11.0
94	COc1ccc2c(CNCCc3cccs3)c(C(=O)O)n(Cc3ccccc3)c2c1	-22.6%	7.6
95	CC(C)c1noc(-c2ccccc2OCC(=O)Nc2cccc([N+](=O)[O-])c2)n1	1.3%	-10.2
96	O=C(CC1N=C2c3ccccc3N=C(SCc3ccc(Cl)cc3)N2C1=O)NC1CCCCC1 (stereo not drawn)	-1.1%	-1.2
97	CSc1ccc(CCNC(=O)c2ccc3c(Cl)c4c(nc3c2)CCCC4)cc1	-7.9%	-5.8
98	COc1ccc(NC(=O)CSc2nc(-c3cc(OC)c(OC)c(OC)c3)[nH]c2-c2ccc(F)cc2)cc1	?	2.8
